Biofilm kill mix: mixtures killing C. albicans biofilm; C. albicans biofilm persisters + clotrimazole, fluorescence viability; primary screen in compound mixtures of four per well; inhibition, % at 7.6 µM; 0.02% of 120,000 active; AID 1242;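 active = inhibition above 30.3% in the primary screen of four-compound pools, then above 30% when the compound was retested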;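 also: compounds exposed to preformed 24 h biofilms for 48 h; the number belongs to the whole pool; some results filed as inactive read as strong as hits; inactives centre near 12; 0% = biofilm with clotrimazole alone and 100% = kill control; retested singly at about 60 µM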
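Incubation: 24 h biofilm formation, then 48 h compound exposure, 37 °C | Material: C. albicans biofilms | Buffer or medium: RPMI/MOPS medium, pH 7.0 | Measured by: 2-h Alamar Blue fluorescence, 535/590 nm excitation/emission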
* hit, by the source's call. Some of the compounds tested. The share of hits here may be higher or lower than overall.

Structure | Biofilm kill mix
COc1ccc(C(=O)Nc2ccccc2C(=O)NC(Cc2ccc(O)cc2)C(=O)NNC(=O)c2ccc(C)cc2)cc1 (stereo unspecified) | 15
CC(C)=CC(=O)O[C@H]1[C@@H]2[C@H](C)C(=O)O[C@@H]2C[C@@H](C)[C@@H]2[C@@H](O)CC(=O)[C@]21C | 12
CCOCC(=O)Nc1nc2ccccc2s1 | 14
COc1ccc(S(=O)(=O)NCc2ccc(C(=O)N3CCc4ccccc4C3)cc2)cc1 | 11
CC(=C/c1ccc(C(C)C)cc1)/C=N/NC(=O)Cn1nnnc1N | 16
Cc1cc(C)n2ncc(/C(N)=N/OC(=O)Nc3ccccc3)c2n1 | 6
CC(=O)C1=C(O)C(=O)N(c2ccc(S(=O)(=O)Nc3nccs3)cc2)C1c1ccc(F)cc1 (stereo unspecified) | 22
CCOC(=O)c1cc(-c2ccc(OC(F)F)cc2)nc2nc(SC)[nH]c(=O)c12 | 16
COc1ccc(C(=O)NCc2nnc(SCC(=O)Nc3cc(C)on3)o2)cc1OC | 15
Nc1nc(Nc2ccccc2)nc(NCc2ccccc2)c1[N+](=O)[O-] | 3
Cc1csc(CN(C)C(=O)CC2C(=O)NCCN2Cc2ccc(-c3ccccc3)cc2)n1 (stereo unspecified) | 16
Cc1ccc(C(=O)NCCSCc2ccccc2)cc1[N+](=O)[O-] | 16
Cc1cccc(C2c3[nH]c4ccccc4c3CCN2C(=O)c2noc3c2CCCC3)n1 (stereo unspecified) | 18
COc1ccc(/C=C(\C#N)C(=O)Nc2cc(S(=O)(=O)N3CCCCC3)ccc2N2CCCCC2)cc1 | 14
CCOCCOC(=O)NCCCCCCNC(=O)OCCOCC | 15
COc1ccccc1NS(=O)(=O)c1cc(NC(=O)C2CCCC2)ccc1N1CCOCC1 | 13
Cc1nn(-c2nc3ccccc3[nH]2)c(N)c1-c1ccccc1 | 7
O=C(CN1CCCC1)Nc1ccc([N+](=O)[O-])cc1Cl | 16
Cc1cccc2sc(NC(=O)c3cc(S(=O)(=O)N(C)C)ccc3N3CCCC3)nc12 | 1
Cc1c(NC(=S)NC(=O)CC(C)C)c(=O)n(-c2ccccc2)n1C | 11
COc1ccc2c(c1)CCC/C2=N\NC(=O)c1ccoc1C | 19
COc1ccc(/C=C/C2=CC(C)(C)NC(=S)N2)c(OC)c1 | 11
Cc1cc(N2CCCC2=O)cc(C)c1S(=O)(=O)Nc1c(C)nn(C)c1C | 17
COc1ccc(C2(C(=O)Nc3ccc(S(N)(=O)=O)cc3)CCCC2)cc1 | 27
O=C(Nc1ccc(S(=O)(=O)N2CCOCC2)cc1)c1cc(-c2ccccc2O)n[nH]1 | 22
C/C(=N/NC(=O)CNC(=O)c1ccccn1)c1ccc([N+](=O)[O-])cc1 | 13
COC(=O)c1sccc1NC(=O)CC1C(=O)NCCN1C(=O)c1ccc(C)c(C)c1 (stereo unspecified) | 19
CCc1ccc(Oc2cc(Cl)nc(N)n2)cc1 | 8
O=C(O)CCCCCN1C(=O)/C(=C\c2ccc(-c3ccc(Cl)cc3)o2)SC1=S | 15
COc1ccccc1Nc1nc(N)nc(CSC(=S)N2CCOCC2)n1 | 21
COc1cc(CO)ccc1Oc1nc2ccccc2n2cnnc12 | 22
NS(=O)(=O)c1ccc(CCNS(=O)(=O)c2ccc(Cl)nc2)cc1 | 22
O=C(/C=C/c1ccc(O)c(O)c1)c1ccc(S(=O)(=O)N2CCCCCC2)cc1 | 1
O=C(NNc1c(Cl)cccc1Cl)c1sccc1Cl | 5
COC(=O)/C(C#N)=C1/C=Cc2ccccc2N1 | 23
Cc1ccc(-c2nn[nH]n2)cc1Cl | 24
COCCSc1nnc(NC(=O)C2CC(=O)N(c3ccc(OC)cc3)C2)s1 (stereo unspecified) | 18
CC1CCc2c(sc3ncnc(NS(=O)(=O)c4cccs4)c23)C1 (stereo unspecified) | -3
Cc1cc(/C=C(\C#N)C(=O)Nc2ccccc2F)c(C)[nH]1 | -9
COc1ccccc1-n1c(-c2cn(C)nc2C)n[nH]c1=S | 12
S=C(Nc1ccccn1)Nc1ccccc1Cl | 3
NC(=O)c1nn(-c2ccc(Cl)cc2Cl)c(=O)cc1O | 12
CC(=O)c1ccc(Nc2c3c(nc4ccccc24)CCCC3)cc1 | 28
O=C(NCc1cccnc1)C1CCCN(S(=O)(=O)c2cccc3nsnc23)C1 (stereo unspecified) | 18
O=C(COC(=O)C1CCN(S(=O)(=O)c2cccs2)CC1)Nc1ccc(F)cc1F | 9
COCCCNC(=S)N1CCC(C(=O)c2ccc3c(c2)OCCO3)CC1 | 14
CCOC(=O)C1(CCCc2ccccc2)CCN(C(=O)c2cnc(C)cn2)CC1 | 6
CC(C)Oc1ccc(C(=O)Nc2ccc([N+](=O)[O-])cc2)cc1 | 3
CC(=O)Nc1ccccc1OCC(=O)NCCC1=CCCCC1 | 3
CC[C@H](C)[C@H](NC(N)=O)C(=O)Nc1ccc(C)cc1 | 19
Cc1nn(C)c2ncc(C(N)=O)c(Oc3ccc(Cl)cc3)c12 | 23
Cc1ccnc(SCC(=O)N2CCN(c3ccccc3)CC2)n1 | 16
O=C(Cn1ccc(=O)[nH]c1=O)NCCO | -1
COc1cc(C2=NOC(C(=O)Nc3cccnc3)C2)cc(OC)c1OC (stereo unspecified) | 19
O=C(Nc1ccc(Cl)cc1C(=O)N1CCOCC1)c1cccc([N+](=O)[O-])c1 | 17
COC(=O)c1ccccc1NC(=O)C/C(C)=N/NC(=O)CC#N | 3
Cc1cc(C)cc(OCC(=O)Nc2ccc3c(c2)OCCO3)c1 | 13
O=C(/C=C/c1ccccc1)N1c2ccccc2Sc2ccc(C(F)(F)F)cc21 | 0
CC(=O)Nc1cccc(OCCCNC(=O)c2ccc(F)cc2)c1 | 23
Fc1ccccc1C1c2[nH]c3ccccc3c2CCN1Cc1ccoc1 (stereo unspecified) | 16

The list goes on.
Structure | Biofilm kill mix
O=C1C2Sc3[nH]c(=O)sc3C(c3cc([N+](=O)[O-])ccc3O)C2C(=O)N1c1ccccc1 (stereo unspecified) | 13
O=C(CCc1ccccc1)NNC(=O)c1ccc(F)cc1 | 16
CC1SCCN1S(=O)(=O)c1ccc2ccccc2c1 (stereo unspecified) | 10
Cc1cc(C)c(NC(=O)c2cc(C(=O)O)ccc2C(=O)O)c([N+](=O)[O-])c1 | 15
Brc1ccc2c(c1)C(c1cccnc1)=NNC(c1cccs1)=N2 | 10
COc1cc(/C=N/NC(=O)c2ccc3ccccc3c2)ccc1Oc1ccc([N+](=O)[O-])cn1 | 22
Cc1cc2c(N=NC(=O)C3CC3c3ccccc3)c(O)[nH]c2cc1Br (stereo unspecified) | -3
CCCONC(=O)Nc1ccccc1[N+](=O)[O-] | -4
CCOC(=O)c1ccc(NC(=O)COc2ccc(CNCCO)cc2OCC)cc1 | 0
CCN(CC)S(=O)(=O)c1ccc(C(=O)NCCN(C)C)cc1 | 3
Cc1nc2ccc([N+](=O)[O-])cc2[nH]1 | -2
Cc1nc(Cl)sc1C(=O)Nc1ccccc1 | 13
COc1ccc(CN2C(=O)CCC(C(=O)O)C2c2ccccc2)cc1 (stereo unspecified) | 1
COc1ccc(C(=O)c2ccccc2)c(OCC(=O)NC2CC2)c1 | 17
O=C(NCc1ccccc1Cl)NC(=O)c1csc([N+](=O)[O-])c1 | 16
CCn1nc(C)c([N+](=O)[O-])c1C(=O)NNC(=O)c1ccccc1Cl | 21
COc1ccc(/C=C/C(=O)O)cc1S(=O)(=O)N1CCC(Cc2ccccc2)CC1 | 4
COc1ccc(C(=O)NC(=S)NCc2ccco2)cc1 | 10
COc1cccc(NC(=O)CN(c2cccc(OC)c2)S(C)(=O)=O)c1 | -5
C=CCn1c(SCC(=O)NC2CCS(=O)(=O)C2)nnc1-c1ccncc1 (stereo unspecified) | 6

An excerpt from above in order of molar mass, falling.
Structure | Biofilm kill mix
O=C(NCc1cccnc1)C1CCCN(S(=O)(=O)c2cccc3nsnc23)C1 (stereo unspecified) | 18
CCOC(=O)c1ccc(NC(=O)COc2ccc(CNCCO)cc2OCC)cc1 | 0
Cc1c(NC(=S)NC(=O)CC(C)C)c(=O)n(-c2ccccc2)n1C | 11
CC(=O)Nc1cccc(OCCCNC(=O)c2ccc(F)cc2)c1 | 23
CCN(CC)S(=O)(=O)c1ccc(C(=O)NCCN(C)C)cc1 | 3

The list continues.
molecule | Biofilm kill mix
COc1ccc(C(=O)NCC2OCCc3ccccc32)cc1OC (stereo unspecified) | 11
O=[N+]([O-])c1ccc(O)c(/C=N/n2cnnc2)c1 | 2
CCCCNC(=O)/C=C1\Sc2ccccc2NC1=O | 18
COc1cccc(-c2cc(C(F)(F)F)c(C#N)c(=O)[nH]2)c1 | 5
COc1ccc(/C=N/N=C2/NC(=O)C(CC(=O)NC(C)C)S2)cc1 (stereo unspecified) | 12
CC12CCC(=O)N1C(C(=O)OCC(=O)Nc1cccc(S(=O)(=O)N3CCCCCC3)c1)CS2 (stereo unspecified) | 15
CN1C(=S)SC(/[N+]([O-])=C/c2ccc(Cl)cc2)C1(C)C (stereo unspecified) | 15
COC(=O)c1sc(C(F)(F)F)c(-c2ccccc2)c1S(=O)(=O)NC(C)(C)C | 12
COc1cccc(NC(=S)N2CCn3c(nc4ccccc43)C2)c1 | 15
Cc1ccc(Cn2nnnc2CN2CCC(NC(=O)C(C)(C)C)CC2)cc1 | 12
Nc1cc(N)cc(C(=O)OCC(=O)Nc2cc(S(=O)(=O)N3CCCCC3)ccc2Cl)c1 | 9
COc1ccccc1C(CC(=O)N1CCCC1)c1ccc2c(c1)OCO2 (stereo unspecified) | 12
O=C(N/N=C/c1ccncc1)c1ccc(OCc2ccccc2)cc1 | 31
Nn1c(SCC(=O)NC2CCCc3ccccc32)nnc1-c1ccc(Cl)cc1Cl (stereo unspecified) | 15
O=C(CSc1ccc(-c2ccc(F)cc2)nn1)NCCc1ccccc1 | 20
O=c1cc(C(F)(F)F)oc2c1ccc1ccccc12 | 13
Cn1c(-c2ccccc2)c(C(=O)CCl)c2ccccc21 | 8
O=C(CCCn1c(=O)[nH]c2ccc(Br)cc2c1=O)NCc1ccc(Cl)cc1 | 8
O=C1Nc2ccc(Br)cc2/C1=C/C(=O)c1ccc2c(c1)OCO2 | 27
O=C1c2ccccc2C(=O)N1CCSc1ncn[nH]1 | 15
Cc1csc2c(NCCCN3CCOCC3)ncnc12 | 20
Cc1ccccc1-n1c(=O)[nH]c(=O)c2c(N)c(C(=O)c3ccc(Cl)cc3)sc21 | 17
COc1cc(/C=C/C(=O)O)cc(Br)c1O | 16
CC(C)OC(=O)CSc1nnc(-c2ccc([N+](=O)[O-])cc2)o1 | 7
COc1ccccc1NC(=O)CSc1ccc(-c2cccs2)nn1 | 8

Filtered by structure: the compounds so far with bromine.
molecule | Biofilm kill mix
Brc1ccc2c(c1)C(c1cccnc1)=NNC(c1cccs1)=N2 | 10
Cc1cc2c(N=NC(=O)C3CC3c3ccccc3)c(O)[nH]c2cc1Br (stereo unspecified) | -3
O=C(CCCn1c(=O)[nH]c2ccc(Br)cc2c1=O)NCc1ccc(Cl)cc1 | 8
O=C1Nc2ccc(Br)cc2/C1=C/C(=O)c1ccc2c(c1)OCO2 | 27
COc1cc(/C=C/C(=O)O)cc(Br)c1O | 16

As entered above.
Biofilm kill mix result of O=[N+]([O-])c1ccc(O)c(/C=N/n2cnnc2)c1 = 2
Biofilm kill mix result of O=C1c2ccccc2C(=O)N1CCSc1ncn[nH]1 = 15

(listing goes on)
molecule | Biofilm kill mix
Cc1ccc(CNC(=O)CCC(=O)Nc2nnc(C3CCCCC3)s2)cc1 | 9
Cc1ccc(Cl)c(OCC(=O)NN2CCN(C)CC2)c1 | 16
CN(C)/C=C1\NC(=S)N(c2ccccc2)C1=O | 7
CCOC(=O)c1ccc(NC(=S)NNC(=O)COC)cc1 | 5
COc1cc([N+](=O)[O-])ccc1NC(=O)c1cccc(NC(=O)C(C)C)c1 | 11
O=C(CCc1ccccc1)NCCSc1ccccc1 | 19
COc1ccc(CN2CCCCCC2)c(C)c1C | 11
Cc1cc(/C=N/NC(=O)c2cccc([N+](=O)[O-])c2)c(C)n1-c1ccccc1 | 16
CCCN1CCC(=O)N(CCSc2ccc(OC)cc2)CC1 | 17
COc1cccc(CC(NC(C)=O)C(=O)NC2CCN(c3c(Cc4ccccc4)c(C)nc4ncnn34)CC2)c1OC (stereo unspecified) | 7
O=C(CCN1C(=O)/C(=C/c2cccc(Br)c2)SC1=S)Nc1cccnc1 | -2
COc1cc(CNc2ccc(C(=O)O)cc2)cc(Br)c1OCC(=O)NC(C)(C)C | 6
CCOC(=O)C1(CC2CCCCO2)CCN(Cc2nc3ccccc3[nH]2)CC1 (stereo unspecified) | 7
CN1CCN(c2nc(-c3ccccc3)nc(-c3ccccc3)c2C#N)CC1 | 14
OCCNC(=S)Nc1ccc2c(c1)OCCO2 | 3
CCN(CC)S(=O)(=O)c1ccc(Cl)c(NC(=O)COC(=O)c2ccc([N+](=O)[O-])o2)c1 | 23
COc1cccc(NC(=O)C(c2ccccc2)N2CCN(c3ccccn3)CC2)c1 (stereo unspecified) | 25
CN(C)S(=O)(=O)c1cccc(C(=O)N=C2N=C3C=CC(Cl)=CN3Cc3ccccc32)c1 | 24
CCNC(=S)Nc1cc(OCC)c(N2CCOCC2)cc1OCC | 7
CCOc1ccc2nc(NC(=O)C3=NNC(=O)CC3)sc2c1 | -4
N#C/C(=C/c1cccs1)c1nc2ccccc2[nH]1 | 15
O=S(=O)(c1ccc2ccccc2c1)N1CCN(C(=S)Nc2ccc(F)c(Cl)c2)CC1 | 6
COc1cc(/C=N/Nc2nc(=O)[nH]nc2C)cc([N+](=O)[O-])c1O | 20
O=C(CN(Cc1ccccc1)C1=NCCS1)c1ccc(Cl)cc1 | 8
CC(C)NOC(=O)c1ccc(Cl)cc1 | 14
CC(C)(C)C1CCC(=NNc2ccc(S(N)(=O)=O)cc2[N+](=O)[O-])CC1 (stereo unspecified) | -7
Cc1ccc2c(=O)[nH]c(Cc3ccccc3C(=O)O)nc2c1 | 26

High-throughput results deposited in PubChem BioAssay by PCMD.
